# MARV entry inh = Marburg virus entry inhibition; Marburg virus pseudotyped entry inhibition, cell reporter; control for the full effect not named in the record; about a third of the inactives were read at about 46 µM; Potency, µM (highest dose often 37.8 µM), for inactives: at the top dose activity change, negative = inhibition, actives largely listed as inhibitors; 300,000 tested, 1.8% active; active = well fitted inhibition curve with a large enough effect; inconclusive = small, poorly fitted or top-dose-only effect, or effect the other way; inactive = flat fitted curve, though single readings scatter; tested in HEK293 cells; about a fifth of its hits are not listed in these tables; also: % is scaled to controls: 0 for no effect and ±100 for the full control effect; luciferase read-out
# StopGo reporter = lowers the luciferase signal of an FMDV 2A StopGo reporter; human cells with a luciferase reporter of 2A StopGo recoding; control for the full effect not named in the record; Potency, µM (series often up to 57.9 µM), inactives show at the top dose signal change, negative = less light; 410,000 tested, 1.2% active; AID 1159524; active = well fitted falling curve with a large enough effect; inconclusive = small, poorly fitted or top-dose-only effect; inactive = no such curve, though single readings can be large or run the other way; tested in HEK293T cells; also: % is scaled to controls: 0 for no effect and ±100 for the full control effect; nearly all actives have a fitted effect of over 45% in size; luciferase light after 4 h
# Cruzain Triton = cruzain (T. cruzi) inhibition with detergent | P25779 | purified cruzain, Z-FR-AMC fluorescence, 0.01% Triton | Potency, µM, without a hit: max response, negative = inhibition, usual class: inhibitors | 200,000 tested, 0.43% active; active = well fitted curve in the direction sought with a large enough effect; inconclusive = small, poorly fitted or top-dose-only effect, or another doubt; inactive = no such curve, though single readings can be large; an effect the other way counts as inactive or inconclusive;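 also: plate controls were neutral wells for no effect and buffer without enzyme for full effect; nearly all actives have a fitted effect of over 40% in size; top concentration of the series not given in the record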
# Target sequence (P25779 123-467 limits assumed): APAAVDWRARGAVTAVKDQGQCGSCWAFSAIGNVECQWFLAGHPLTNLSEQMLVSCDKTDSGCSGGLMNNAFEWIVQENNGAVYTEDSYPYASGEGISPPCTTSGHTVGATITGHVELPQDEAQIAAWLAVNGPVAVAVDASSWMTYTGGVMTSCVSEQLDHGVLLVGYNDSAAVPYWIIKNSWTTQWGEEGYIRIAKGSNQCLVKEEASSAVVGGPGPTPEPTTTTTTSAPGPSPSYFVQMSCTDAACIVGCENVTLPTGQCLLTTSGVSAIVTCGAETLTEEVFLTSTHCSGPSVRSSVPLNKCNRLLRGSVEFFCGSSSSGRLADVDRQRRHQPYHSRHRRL
#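 Detergent-containing run (0.01% Triton X-100) in acetate buffer pH 5.5 with 5 mM DTT: enzyme at 1.5 nM final, 15 min compound preincubation at room temperature, then 2 uM Z-FR-AMC substrate. Activity taken as 60 s fluorescence increase at 360/450 nm.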
# Lassa entry inh = Lassa virus entry inhibition | Lassa virus pseudotype entry inhibition, cell reporter; control for the full effect not named in the record | Potency, µM (highest dose often 37.9 µM), inactives show at the highest dose activity change, negative = inhibition, actives largely listed as inhibitors | 300,000 tested, 1.2% active; active means well fitted inhibition curve with a large enough effect; inconclusive means small, poorly fitted or top-dose-only effect, or effect the other way; inactive means flat fitted curve, though single readings scatter; tested in HEK293 cells; also: % is scaled to controls: 0 for no effect and ±100 for the full control effect; nearly all actives have a fitted effect of over 50% in size; luciferase read-out
# SARS PLP yeast = SARS-CoV PLP inhibition in yeast; S. cerevisiae expressing SARS-CoV PLpro, growth rescue; control for the full effect not named in the record; Potency, µM (titrated, usually from 32.9 µM), without a hit: at the highest dose activity, positive = growth rescue; 330,000 tested, 0.19% active; AID 485353; also: 0% is about no effect; nearly all actives have a fitted effect of over 55% in size; growth read by luminescence after 48 h
# Cruzain noTriton = inhibitors of Trypanosoma cruzi cruzain without detergent. purified cruzain, Z-FR-AMC fluorescence, no detergent. AID 1476. 200,000 tested, 2.3% active. P25779. Potency, µM, for inactives: max response, negative = inhibition, hits mostly inhibitors; active = well fitted curve in the direction sought with a large enough effect; inconclusive = small, poorly fitted or top-dose-only effect, or another doubt; inactive = no such curve, though single readings can be large; an effect the other way counts as inactive or inconclusive;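 also: plate controls were enzyme without inhibitor for no effect and buffer without enzyme for full effect; nearly all actives have a fitted effect of over 40% in size; top concentration of the series not given in the record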
#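 Purified cruzain at 1.5 nM, pre-incubated 15 min with compound at room temperature in 100 mM sodium acetate pH 5.5, 5 mM DTT, 0.00005% Triton X-100. Reaction started with 2 uM Z-FR-AMC; AMC fluorescence increase over 60 s gives rate.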
# RE007 growth inh = less growth of the S. pombe RE007 Vpr strain; Potency, µM (series often up to 92.2 µM), for the others: top-dose activity change, negative = less growth; S. pombe RE007 Vpr strain, BacTiter-Glo ATP luminescence, 24 h; control for the full effect not named in the record; 360,000 tested, 0.21% active; AID 651644; active = well fitted falling curve with a large enough effect; inconclusive = small, poorly fitted or top-dose-only effect; inactive = no such curve, though single readings can be large or run the other way;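 also: % is scaled to controls: 0 for no effect and ±100 for the full control effect; nearly all actives have a fitted effect of over 50% in size; the assay follows cell death caused by Vpr and the record does not say whether a fall means rescue or toxicity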
#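 Fission yeast strain RE007, carrying one chromosomally integrated HIV-1 vpr copy, was seeded at OD 0.01 in PMG+AL medium with 23 nL pinned compound. After 24 h at 30 °C and 99% humidity, viability was read by BacTiter-Glo luminescence.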
# NS1 inh = influenza NS1 inhibition; S. cerevisiae slowed by influenza A NS1, growth recovery by OD600; Potency, µM (doses to about 46.1 µM), without a hit: at the top dose activity, positive = more growth; 270,000 tested, 0.4% active; also: actives are rising curves; nearly all actives have a fitted effect of over 50% in size
#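 S. cerevisiae expressing influenza A NS1, grown in glucose, washed, then diluted 1:100 into pH 6.0 -URA galactose medium with 23 nl compound. Growth recovery read as OD600; NS1-free strain serves as control.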
# * = called active by the depositor; u = inconclusive; x = no result given; & = joins results of further samples; [ ] = another dose, or the depositor's remark. Unless noted, calls follow the shape of the dose curve; as a rule, active means well fitted rising curve with a large enough effect; inconclusive means small, poorly fitted or top-dose-only effect; inactive means no such curve, though single readings can be large or run the other way. Potency is read from the fitted curve at half-maximal effect.
compound	MARV entry inh	StopGo reporter	Cruzain Triton	Lassa entry inh	SARS PLP yeast	Cruzain noTriton	RE007 growth inh	NS1 inh
O=C(NCc1cccc(Cl)c1)C1CCC(=O)N(C2CC2)C1 (stereo unspecified)	x	-1%	x	x	-1%	x	-5%	1%
NC1=NC(=O)C(c2ccccc2)C(=O)N1 (stereo unspecified)	-1%[46.1 µM]	-7%	x	-10%[46.1 µM]	x	x	-11%	x
COC(=O)c1[nH]c2cc(OC)ccc2c1N	-4%	19%	-3.9%	u	5%	0%	-7%	-14%
Cn1cccc1C(=O)C(=O)Nc1ccccc1	u	-3%	-1.7%	u	-1%	4%	u	-10%
CC(C)CCN(CC(=O)NC1CCCC1)C(=O)C(=O)Nc1ccc2c(c1)OCCO2	-10%[46.1 µM]	11%	x	-16%	-2%	x	-22%	6%
Cc1c(OCC(N)=O)ccc2c(-c3ccccc3)cc(=O)oc12	-9%[46.1 µM]	-5%	x	-6%	1%	x	17%	3%
O=C1CSC(c2cccc(F)c2)N1c1ccccc1F (stereo unspecified)	1%[46.1 µM]	6%	-0.5%	0%	0%	-4%	19%	-3%
COc1cccc(OC)c1C(=O)Nc1nc2ccc(S(C)(=O)=O)cc2s1	u	-19%	0.0%	u	-7%	-6%	0%	3%
CCOc1cc(/C=N/NC(=O)CSc2cccc3cccnc23)ccc1O	-26%[46.1 µM]	-16%	x	u	-2%	x	-9%	x
Cc1ccc(-c2nc3ccc(NS(=O)(=O)c4ccccc4)cc3[nH]2)o1	-1%	x	-3.2%	-29%	1%	5%	1%	5%
COc1ccc(-c2cn(CC3CCCCC3)nn2)cc1	x	54%[activator]	x	x	-4%	x	7%	-16%
Cc1cc2c3nonc3ccc2n1-c1ccccc1	6%	4%	-29%	0%	-1%	3%	u	-14%
O=S(=O)(NC1CCCCC1)c1ccc(F)c2ccccc12	u	0%	-2.5%	8%	-18%	0%	3%	-102%
Cc1cc(Br)cc(Br)c1OCC(=O)NNC(=O)c1ccoc1C	-23%	-28%	x	23%	2%	x	21%	-8%
Oc1cccc(CCC2CCCCN2Cc2cn[nH]c2-c2ccc3c(c2)OCO3)c1 (stereo unspecified)	u	-13%	x	-3%[46.1 µM]	-1%	x	-22%	7%
O=c1c(C=NCc2cccnc2)c(C(F)(F)F)[nH]n1-c1nc2ccccc2s1	u	u	x	u	-1%	x	u	3%
Cc1cccc(NC(=O)CSc2nc3ccccc3nc2N2CCCCC2)c1C	-7%[46.1 µM]	-23%	-1.2%	u	x	2%	x	x
O=C(O)CCCC(=O)Nc1ccc(Br)cc1C(=O)O	u	-3%	-0.1%	-9%	-2%	1%	-12%	1%
COCCN(C(=O)COC(=O)C1(c2ccccc2)CC1)c1c(N)n(CC(C)C)c(=O)[nH]c1=O	-1%	-18%	x	7%	0%	x	-13%	x
CCc1c(O)nc(SCC(=O)N2CCOCC2)n(-c2ccccc2)c1=O	6%	0%	3.9%	3%	-3%	-13%	2%	8%
CCN(CC)/C(=N/O)NC(=O)NS(=O)(=O)c1ccc(C)cc1	16%	0%	1.5%	16%	x	6%	16%	5%
Cc1ccc(-c2nc(N/N=C/c3ccccc3[N+](=O)[O-])c3ccccc3n2)cc1	u	42%	-7.0%	u	6%	u	-23%	-3%
CC(C(=O)Nc1ccc([N+](=O)[O-])cc1)N1CCN(C/C=C/c2ccccc2)CC1 (stereo unspecified)	13µM*	28µM*	0.5%	8%	-18%	-4%	9%	-3%
COc1cccc(NC(=S)NN2CCN(C)CC2)c1	7%	-16%	3.1%	4%	-3%	-13%	-10%	7%
c1ccc(COc2ccccc2CNC23CC4CC(CC(C4)C2)C3)cc1	u	-12%	x	u	-1%	x	3%	-6%
O=C(c1ccccc1F)N(Cc1ccc2c(c1)OCO2)Cc1cc2cc3c(cc2n2nnnc12)OCO3	-12%	1%	-1.8%	-4%	4%	-28%	13%	24%
COc1c(/C=N/NC(N)=S)c(C)nn1-c1ccccc1	-12%	-6%	-29%	11%	25%	u	-6%	7%
COCC(C)N1CCC(n2nccc2NC(=O)c2ccc3c(c2)OCO3)CC1 (stereo unspecified)	3%	-16%	x	5%	x	x	3%	2%
CCCn1nnnc1NCc1cccc(OC)c1OC	-2%	14%	x	-10%	-2%	x	0%	9%
CCOc1ccc(-c2cc(C(=O)O)c3ccccc3n2)cc1	21µM*	u	-8.5%	12µM*	-5%	-7%	-23%	-14%
CCc1c(-c2ccccc2)nc2ccccc2c1C(=O)NCc1ccc(C)cc1	x	-27%	-0.2%	-19%[46.1 µM]	x	9%	x	x
CN(C)S(=O)(=O)c1ccc(Cl)c(C(=O)NCc2ccco2)c1	-10%	-1%	2.7%	-2%	3%	1%	-9%	-9%
CCCn1c(SCC(=O)c2cc(OC)ccc2OC)nnc1C(C)C	-6%	5%	-2.5%	u	4%	u	-1%	-8%
CNC(=S)N/N=C/c1cccc(OCc2ccccc2F)c1	u	-9%	-10%	4µM*	25%	u	-24%	18%
CCn1c(=O)n(CC)c2cc(S(=O)(=O)Nc3c(C)cccc3C)ccc21	x	-16%	-1.8%	x	1%	4%	9%	-6%
COc1ccc(NC(=O)Nc2ccc(C(C)C)cc2)cc1	-27%[46.1 µM]	27%	x	9%[46.1 µM]	-2%	x	-18%	-21%
Cc1cccc2c(=O)cc(C)n(CC(=O)N3CCOCC3)c12	-12%[46.1 µM]	9%	-3.5%	u	-4%	1%	11%	5%
Cc1ccc(C2=C(CC(=O)O)C(=O)CC2)cc1	u	3%	1.6%	3%	-8%	1%	x	5%
CCOC(=O)c1cccc(NC(=O)Cn2cc3c(n2)CCC(C)C3)c1 (stereo unspecified)	-18%	-19%	-5.9%	u	-36%	-1%	-1%	-53%
CSCCC(NC(=O)c1ccc([N+](=O)[O-])cc1Cl)C(=O)OC(C)C(=O)NCc1ccco1 (stereo unspecified)	0%	-14%	x	0%	-1%	x	-3%	x
CN(C)S(=O)(=O)NCC1CCCN(Cc2ccc(-c3ccccc3)cc2)C1 (stereo unspecified)	x	-20%	x	x	0%	x	-11%	13%
CCN(C(=O)COC(=O)c1ccccc1O)c1nc2ccccc2s1	-2%[46.1 µM]	-1%	x	17%[46.1 µM]	-19%	x	9%	x
Clc1cccc(CNCCCSc2ncccn2)c1	-16%[46.1 µM]	0%	x	1%[46.1 µM]	0%	x	8%	19%
COc1ccccc1/C=C/C=N/NC(=O)CN1CCN(Cc2ccccc2)CC1	-19%	-8%	x	-5%	-2%	x	0%	2%
Cc1ccc(NC(=O)CN2CCSc3ccc(S(=O)(=O)N4CCCC4)cc32)cc1C	x	0%	-14%	-14%[46.1 µM]	x	-15%	x	x
Cc1ccnc(NC(=O)CCC(=O)N(CC(=O)NC2CCCCC2)Cc2ccccc2)c1	u	-10%	x	16%	-2%	x	-6%	-2%
CCOc1cc(C2NC(=O)NC(C)=C2C(=O)OCC2CCCCC2)ccc1O (stereo unspecified)	u	-29%	x	-30%	-3%	x	-5%	11%
COCCn1c(=N)c(C(=O)NCc2ccco2)cc2c(=O)n3cc(C)ccc3nc21	u	1%&-12%	-2.1%	u	1%	8%	-11%	8%
Cc1c(C(N)=O)sc(N)c1C(=O)OC(C)C	3%	23%	4.8%	-1%	4%	-16%	-9%	2%
CCC(CO)Nc1nc(CN2CCCCC2)nc2scc(-c3ccccc3)c12 (stereo unspecified)	u	-18%	-3.8%	-26%[46.1 µM]	-4%	-16%	-5%	-6%
O=C(O)Cc1ccc(C(=O)c2ccccc2)s1	u	16%	-0.2%	3%	1%	-5%	10%	1%
COCC(C)n1c(SCC(=O)N2CCCCC2)nc2ccccc2c1=O (stereo unspecified)	u	-6%	-2.4%	-17%	2%	9%	6%	-2%
C/C(O)=C(\C#N)c1nnc2n1CCCCC2	2%	x	2.8%	10%	0%	5%	6%	1%
CCn1nc(CC(=O)Nc2ccc(-n3cnnn3)c(OC)c2)c2ccccc2c1=O	11%	-11%	2.5%	2%	1%	-18%	8%	4%
COc1ccc(NS(=O)(=O)c2ccc(C)c(C(=O)NCc3cccnc3)c2)cc1	18%	-12%	x	7%	25%	x	-11%	0%
CN(C(=O)CCNC(=O)Cn1cnc2ccccc2c1=O)c1ccc(F)cc1	2%[46.1 µM]	-16%	x	5%	-1%	x	-5%	2%
Cc1cc(C)n2nc(C)[n+](C)c2n1	u	-18%	1.4%	-1%	1%	-4%	203%	-5%
COc1ccc(-n2c(SCC(=O)NCCCN3CCCC3=O)nnc2C(C)N2CCCCC2)cc1 (stereo unspecified)	x	-17%	x	x	5%	x	10%	7%
Cc1ccccc1N1CCN(S(=O)(=O)c2ccccc2)CC1	-3%&-3%	-18%&-8%	-5.7%&-9.5%	-17%[46.1 µM]	-61%	-5%&-1%	-4%	-12%
Cc1ccc(NC(=O)Cn2c(=O)c3cccn3c3ccccc32)c(C)c1	x	2%	x	x	-3%	x	-7%	-2%

# Additional structures follow.
compound	MARV entry inh	StopGo reporter	Cruzain Triton	Lassa entry inh	SARS PLP yeast	Cruzain noTriton	RE007 growth inh	NS1 inh
Cc1cccc(OCCCC(=O)Nc2ccc(N(C)C)cc2)c1	6%	56%[activator]	-2.0%	19%	-6%	-8%	-9%	15%
COc1ccccc1OCCNC(=O)c1ccco1	29%[46.1 µM]	10%	x	7%[46.1 µM]	1%	x	15%	1%
CCc1ccc(S(=O)(=O)c2c(C(=O)c3ccc(C)c(C)c3)cnc3ccccc23)cc1	-13%[46.1 µM]	-22%	-2.9%	x	x	13µM*	x	x
Cc1c(C(=O)Nc2ccccc2[N+](=O)[O-])csc1-c1ccccc1	u	-6%	-2.8%	u	-52%	-3%	0%	-4%
CCOC(=O)C1=NN(C(=O)c2ccccc2)C(O)(c2ccc(C)cc2)C1 (stereo unspecified)	-21%[46.1 µM]	-9%	-2.1%	12%	-19%	11%	3%	19%

# Assay outcomes from PubChem.
